# gsp agonist = activates gsp, the McCune-Albright syndrome mutation; 0.13% of 340,000 active; gsp mutant cells, cAMP HTRF, 30 min; control for the full effect not named in the record; Potency, µM (series often up to 76.9 µM), without a hit: top-dose activation (cAMP increase), actives largely listed as activators; active = well fitted activation curve with a large enough effect; inconclusive = small, poorly fitted or top-dose-only effect, or another doubt; inactive = no such curve, though single readings can be large or run the other way; cell line not stated here;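 also: phosphodiesterase inhibitor Ro 20-1724 added with compounds to block cAMP breakdown; potency is read from the fitted curve at half-maximal effect; nearly all actives have a fitted effect of over 60% in size; about a fifth of the inactives were tested at one dose only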
#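 Cells stably selected in G418 were plated at 2000/well, grown 16-24 hr, then given compounds in DMSO with the PDE inhibitor […] (300 uM solution added) for 30 min at 37C; cAMP was read by HTRF.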
# Menin-MLL FL inh = menin-MLL binding inhibition, fluorescein peptide. 290,000 tested, under 10 active. Fluorescence polarization, fluorescein-MLL peptide displacement from menin. AID 1766. FP activity change, % at 61.4 µM; inconclusive = falling polarisation curve, or a change in total fluorescence; inactive = total fluorescence flat and polarisation flat or rising; no compound was filed as active; the % refers to the polarisation; negative = inhibition;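 also: % of control where 0% means no effect; inhibitors lower the polarisation; unlabelled MLL peptide was the positive control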
# D2 agonist = human D2 receptor agonism in beta-arrestin assay. P14416. DiscoveRx PathHunter D2 beta-arrestin, luminescence, 90 min; 100% = 57 uM dopamine signal. activation, % (test concentration not listed). 0.084% of 360,000 active. AID 624465; in the data active = activation above about 40%; inconclusive = about 15% to 40%; inactive = below about 15%; also: compound concentration not given in the record; the text of the record calls up to 30% inactive
# Target sequence (P14416 whole entry, looked up): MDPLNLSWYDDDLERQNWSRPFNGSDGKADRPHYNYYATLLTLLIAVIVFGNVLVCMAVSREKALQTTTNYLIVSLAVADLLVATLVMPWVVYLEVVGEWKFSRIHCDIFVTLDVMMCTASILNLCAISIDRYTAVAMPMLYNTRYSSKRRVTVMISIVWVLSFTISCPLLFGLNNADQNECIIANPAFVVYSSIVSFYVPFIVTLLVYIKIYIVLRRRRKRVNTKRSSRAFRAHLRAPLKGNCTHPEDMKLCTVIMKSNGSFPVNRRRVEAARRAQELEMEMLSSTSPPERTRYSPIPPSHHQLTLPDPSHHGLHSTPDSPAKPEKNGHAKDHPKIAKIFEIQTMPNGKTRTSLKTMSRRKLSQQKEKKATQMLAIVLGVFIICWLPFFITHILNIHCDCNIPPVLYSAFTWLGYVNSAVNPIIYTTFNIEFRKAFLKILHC
#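 Agonist mode: compounds alone added to overnight-plated D2 PathHunter cells for 90 min at 37 C, with 57 uM final dopamine (EC100) defining full response. Beta-arrestin recruitment detected by chemiluminescent reagent, read after 1 h at ambient temperature.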
# ClpP mod = qHTS Assay for Activators of ClpP | purified B. subtilis ClpP, FRET peptide cleavage, 20 min | 1.9% of 340,000 active | Potency, µM (top dose mostly 57.5 µM), for inactives: at the highest dose activity change, negative = active; active = well fitted falling curve with a large enough effect; inconclusive = small, poorly fitted or top-dose-only effect; inactive = no such curve, though single readings can be large or run the other way; also: potency is read from the fitted curve at half-maximal effect; the source files actives as falling curves though it sought activators and does not explain the sign; nearly all actives have a fitted effect of over 65% in size; many hits overshoot -100%
# Target sequence (P80244 whole entry, looked up): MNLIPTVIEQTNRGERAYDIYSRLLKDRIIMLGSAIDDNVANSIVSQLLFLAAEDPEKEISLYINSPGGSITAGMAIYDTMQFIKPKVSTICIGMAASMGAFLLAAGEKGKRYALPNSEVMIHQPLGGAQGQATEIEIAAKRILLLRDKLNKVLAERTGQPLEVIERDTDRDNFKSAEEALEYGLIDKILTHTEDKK
#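 Buffer: 100 mM Tris/HCl pH8, 100 mM KCl, 0.05% low protease BSA, 2.5% glycerol, 0.01% Tween-20. ClpP 10 microg/mL final; 20 min RT; delta FRET normalized to ADEP and DMSO controls.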
# PINK1 expr mod = changes PINK1 expression. PINK1 immunofluorescence, high-content cytometry, 24 h. Potency, µM (series often up to 76.6 µM), for the others: at the highest dose activation (PINK1 increase), most hits filed as activators. 0.2% of 410,000 active. AID 624263; active = well fitted activation curve with a large enough effect; inconclusive = small, poorly fitted or top-dose-only effect; inactive = flat fitted curve, though single readings scatter; cell line not stated here;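 also: potency is read from the fitted curve at half-maximal effect; % of control where 0% means no effect; nearly all actives have a fitted effect of over 65% in size; a mitochondrial uncoupler was the plate control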
#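 A stable cell line was treated with compounds at 5 concentrations for 24 hours, with CCCP as control. PINK1 levels and mitochondrial localization were measured by immunofluorescence with mitochondrial, cell and nuclear markers after fixation, read by laser-scanning cytometry.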
# Sfp PPTase inh = blocks B. subtilis Sfp PPTase activity | Q9F4F7 | Biochemical Sfp PPTase activity, qHTS | Potency, µM, inactives show max response, negative = inhibition, hits mostly inhibitors | 3.5% of 310,000 active; active = well fitted inhibition curve with a large enough effect; inconclusive = small, poorly fitted or top-dose-only effect, or another doubt; inactive = no such curve, though single readings can be large or run the other way;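 also: the enzyme is Sfp with the accession as filed and its product quenches rhodamine fluorescence; potency is read from the fitted curve at half-maximal effect; 0% = enzyme reaction without inhibitor and -100% = no enzyme wells; top concentration of the series not given in the record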
#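 Step 1, compound plus 15 nM Sfp-PPTase, 15 min, room temperature. Step 2, add rhodamine-CoA (5 uM) and BHQ-2-YbbR (12.5 uM). Step 3, read 525/598 nm fluorescence at 0 and 30 min.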
# gsp antag = antagonizes gsp, the McCune-Albright syndrome mutation. gsp-mutant cells, cAMP HTRF, 30 min; control for the full effect not named in the record. Potency, µM (titrated, usually from 76.9 µM), for inactives: at the highest dose activity change, negative = inhibition, usual class: inhibitors. 0.4% of 340,000 active; active = falling curve of any shape with a large fitted effect; inconclusive = falling curve, mostly with a smaller effect; inactive = flat or rising curve; cell line not stated here;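 also: intracellular cAMP measured with PDE inhibitor Ro 20-1724 present during compound exposure; potency is read from the fitted curve at half-maximal effect; % is scaled to controls: 0 for no effect and ±100 for the full control effect; nearly all actives have a fitted effect of over 65% in size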
#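 Cells in G418 medium, seeded 16-24 h, 37C; buffer exchange to DPBS + 1 mM CaCl2, 0.5 mM MgCl2, 0.05% BSA; cpds in DMSO + […] (300 uM stock), 30 min 37C; HTRF cAMP detection.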
# An asterisk follows results filed as active; ? = inconclusive; · = no result given; [ ] = another dose, or the depositor's remark. The list is partial. The share of hits here may be higher or lower than overall.
# Every second line gives: PINK1 expr mod, ClpP mod, Menin-MLL FL inh, Sfp PPTase inh, gsp agonist, gsp antag, D2 agonist
- CCCCCCC(=O)N/N=C/c1c(O)n(C(C)CC)c(=S)[nH]c1=O (configuration not stated)
→ 1.7%, 0.0%, 10.4, 22.0%, -15.7%, -10.4%, -12.9
- Clc1ccc2c(c1)C(c1ccccc1Cl)=NCc1nnc(N3CCN(CCOc4ccccc4)CC3)n1-2
→ 7.2%, 1.4%, 3.6, -22.6%, -3.1%, -16.9%, 3.3
- O=c1[nH]c(=S)n(-c2ccccc2)c(O)c1/C=N/N1CCOCC1
→ 0.5%, 0.1%, 7.9, -23.0%, -10.9%, 10.0%, 0.9
- O=c1c2ccccc2nc(Cc2ccccc2)n1-c1cccc(O)c1
→ 0.7%, 0.5%, -0.8, 6.5%, -8.5%[15.4 µM], -20.2%, -5.7
- CCCCn1c(N)c(C(=O)NCc2cccs2)c2nc3ccccc3nc21
→ 6.0%[38.3 µM], 25.1µM*, 5.1, -5.8%, 18.9%, 8.0%, -5.6
- CC(C)CCNC(=O)c1cc(C(=O)c2cc(Br)ccc2O)cn(CCC(C)C)c1=O
→ 10.3%, ·, 19.0, 1.8%, -0.2%[15.4 µM], ?, -0.2
- O=C(NC1CN2CCC1CC2)c1ccc(-c2ccc([N+](=O)[O-])cc2)o1 (configuration not stated)
→ -2.8%, -3.1%, 2.2, 56.2µM*, 18.0%, 10.8%, 2.4
- O=[N+]([O-])c1ccc(C2[C@H]3C(c4ccccc4)=NC4(CCCCC4)N23)cc1 (some centres not stated)
→ 2.7%, -2.5%, 1.5, 3.2%, -40.9%[inhibitor], -4.2%, -1.4
- CCS(=O)(=O)NCc1nnc2n1-c1ccc(Br)cc1C(c1ccccc1Cl)=NC2
→ 2.8%, -0.4%, ·, ·, -0.6%, -3.4%, -5.1
- COc1ccc(N=Cc2c(O)n(C)c(=O)[nH]c2=O)cc1
→ 3.7%, 1.3%, ?, -3.3%, -11.4%, -10.6%, -0.2
- CCOC(=O)c1nsnc1NCCCl
→ -0.2%, ·, -0.3, -1.1%, -1.1%[15.4 µM], ·, -4.1
- COc1cc(OC)c(OC)cc1C=O
→ 1.7%, -6.3%, 0.4, 16.0%, -41.9%[inhibitor], -5.7%, -1.1
- O=C(CCc1nnc2ccc(NCc3ccccc3Cl)nn12)N1CCC2(CC1)OCCO2
→ 0.6%, -4.2%, 2.4, 13.8%, ?, 3.7%, -7.2
- Nc1ccnn1C1CCNCC1
→ 8.4%, 1.0%, -0.1, 17.8µM*, 8.2%, 7.1%, -2.0
- CCOc1cc2c(cc1OCC)-n1cccc1C(c1ccc(OC(F)F)cc1)NC2 (configuration not stated)
→ ?, 1.2%, -7.1, -22.8%, -7.5%, -1.7%, -2.4
- CC(C)N1CCN(Cc2ccccc2C(F)(F)F)CC1CCO (configuration not stated)
→ -1.2%, ·, 2.5, 22.3%, -21.6%[15.4 µM], 9.1%, -2.1
- CC(Cc1ccccc1)N(C)CC1C(=O)C2CCC1C2 (configuration not stated)
→ -4.4%, -3.6%, ·, ·, -1.1%, 8.6%, -5.5
- CC(=O)C1CCC2C3CCC4CC(O)CCC4(C)C3C(O)CC12C (configuration not stated)
→ 1.7%, 0.9%, ·, ·, -0.4%[15.4 µM], -3.4%, -1.2
- CN1C(C(=O)N2CCC3(CC2)OCCO3)=CC(c2ccc(F)cc2)=NS1(=O)=O
→ -0.3%, -7.7%, 6.4, -3.6%, ?, 18.9%, -2.0
- Cc1ccc(-n2c(C)nc3ccccc3c2=O)c(C)c1
→ 4.1%, -0.4%, -1.5, 6.1%, -10.6%, -9.0%, -1.6

# One compound at a time, from the list above. Order of values: PINK1 expr mod	ClpP mod	Menin-MLL FL inh	Sfp PPTase inh	gsp agonist	gsp antag	D2 agonist
# CC(=O)C1CCC2C3CCC4CC(O)CCC4(C)C3C(O)CC12C (configuration not stated) in the list: 1.7%	0.9%	·	·	-0.4%[15.4 µM]	-3.4%	-1.2
# CC(C)CCNC(=O)c1cc(C(=O)c2cc(Br)ccc2O)cn(CCC(C)C)c1=O in the list: 10.3%	·	19.0	1.8%	-0.2%[15.4 µM]	?	-0.2

# Limited to gsp antag, for some of the entries so far:
structure	gsp antag
CC(Cc1ccccc1)N(C)CC1C(=O)C2CCC1C2 (configuration not stated)	8.6%
CCOc1cc2c(cc1OCC)-n1cccc1C(c1ccc(OC(F)F)cc1)NC2 (configuration not stated)	-1.7%
CC(=O)C1CCC2C3CCC4CC(O)CCC4(C)C3C(O)CC12C (configuration not stated)	-3.4%
Cc1ccc(-n2c(C)nc3ccccc3c2=O)c(C)c1	-9.0%
COc1cc(OC)c(OC)cc1C=O	-5.7%
O=C(CCc1nnc2ccc(NCc3ccccc3Cl)nn12)N1CCC2(CC1)OCCO2	3.7%

# The results go on:
# Every second line gives: PINK1 expr mod, ClpP mod, Menin-MLL FL inh, Sfp PPTase inh, gsp agonist, gsp antag, D2 agonist
- Clc1cccc(N2Cc3ccccc3-n3nncc3C2)c1
→ 0.4%, 0.3%, ·, ·, ·, ·, 4.4
- O=c1c2ccccc2nc(Cc2ccccc2)n1-c1ccccc1
→ -0.5%, 0.3%, 1.9, 17.6%, -9.6%, -1.3%, 10.0
- O=C1NC(=O)C(CCc2ccncc2)(CCc2ccccn2)C(=O)N1c1ccc(Br)cc1 (configuration not stated)
→ 3.6%, ·, -0.2, 5.4%, -11.2%[15.4 µM], 6.9%, -3.5
- COc1ccc(NS(=O)(=O)c2ccc(OCC(=O)N3CCN(C)CC3)cc2)cc1Cl
→ -1.7%, 0.6%, ·, 15.3%, -22.7%, -18.5%, 3.6
- Cc1ccccc1S(=O)(=O)N(C)C[C@@H]1OCc2ccccc2-c2c(n(C)c3ccccc23)C(=O)N([C@H](C)CO)C[C@@H]1C
→ 3.9%, -1.8%, ·, ·, 12.0%, ·, ?
- C=CCc1cc(C=C2C(=O)N(C)C(=O)N(C)C2=O)cc(OCC)c1OCc1ccccc1
→ ?, 2.9%, 2.1, 31.6µM*, -18.8%, -12.1%, -1.9
- O=[N+]([O-])c1ccc(N2CCCC2)cc1N/N=C1\CN2CCC1CC2
→ -2.0%, -1.2%, 0.3, 12.0%, -6.1%, -9.9%, -1.1
- Cc1ccc(C)c(NS(=O)(=O)c2ccc(OCC(=O)NCc3cccnc3)cc2)c1
→ -1.2%, -2.6%, 9.1, 10.6%, -30.4%[inhibitor], 1.1%, 0.7
- COc1ccc(C(=O)C2CCCN(Cc3ccc(F)cc3F)C2)cc1F (configuration not stated)
→ 1.5%, 0.0%, 5.3, 24.0%, -4.3%, 3.0%, 1.6
- COCCCN=Cc1c(O)[nH]c(=S)[nH]c1=O
→ 0.3%, 1.2%, 1.7, 9.4%, ?, 9.5%, -2.1
- O=c1[nH]c(=O)n(CCc2ccccc2)c(O)c1C=NC1CC1
→ 3.2%, ·, 3.4, 12.9%, 20.5%, -0.9%, -0.1
- Brc1ccc2c(c1)-n1nncc1CN(CC1CCCCC1)C2
→ 2.4%, -2.0%, ·, ·, ·, ·, 2.5
- O=C1NC(=O)N(c2ccc(Cl)cc2)C(=O)/C1=C\c1ccc(Sc2nc3ccccc3[nH]2)o1
→ 2.2%, ·, ?, 70.8µM*, 8.3%[15.4 µM], -8.4%, -3.1

# High-throughput results: PubChem BioAssay, National Center for Advancing Translational Sciences (NCATS)
